# TRPML1 ag: activates the human TRPML1 channel | Q9GZU1 | TRPML1-expressing cells, Ca2+ dye fluorescence, FDSS; host cell line not named in the record; reference of the full effect not given here | activation, % (test concentration not listed) | 0.12% of 410,000 active | AID 624414; in the data active = activation above about 50%; inconclusive = about 30% to 50%; inactive = below about 30%; also: 0% is about no effect; the text of the record puts the active cut at 80%
# Target sequence (Q9GZU1 whole entry, looked up): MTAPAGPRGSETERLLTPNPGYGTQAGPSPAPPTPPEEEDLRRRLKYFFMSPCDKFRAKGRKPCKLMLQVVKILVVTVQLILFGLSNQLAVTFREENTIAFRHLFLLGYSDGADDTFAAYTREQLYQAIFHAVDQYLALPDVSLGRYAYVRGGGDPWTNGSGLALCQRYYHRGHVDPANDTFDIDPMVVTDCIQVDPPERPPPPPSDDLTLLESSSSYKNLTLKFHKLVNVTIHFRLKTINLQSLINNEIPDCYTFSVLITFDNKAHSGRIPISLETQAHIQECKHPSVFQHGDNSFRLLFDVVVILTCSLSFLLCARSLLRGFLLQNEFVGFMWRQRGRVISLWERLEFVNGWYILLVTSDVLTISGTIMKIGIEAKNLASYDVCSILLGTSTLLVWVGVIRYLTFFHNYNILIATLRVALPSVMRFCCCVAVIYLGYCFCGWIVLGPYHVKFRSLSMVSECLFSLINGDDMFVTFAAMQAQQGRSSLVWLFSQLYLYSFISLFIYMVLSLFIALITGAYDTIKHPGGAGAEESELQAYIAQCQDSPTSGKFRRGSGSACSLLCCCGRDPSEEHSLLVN
#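 Agonist activity was taken from a 110 s kinetic Ca2+ dye read on the FDSS after pinning compounds onto TRPML1-DL cells. The cells were seeded at 1,500/well with Tet inducer, incubated about 16 h, then dye-loaded at room temperature.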
# Six1-Eya2 inh: blocks human Six1 binding to Eya2. AlphaScreen GST-Six1/His-Eya2 binding, biochemical; hits give low values; control for the full effect not named in the record. AID 651725. activity change, % (no concentration beside the values). 0.56% of 360,000 active; in the data active = activity change below about -65%; inconclusive = about -30% to -65%; inactive = above about -30%; also: % is scaled to controls: 0 for no effect and ±100 for the full control effect; compound concentration not given in the record
#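 Six1/Eya2 binding was read as AlphaScreen signal after compounds were pinned into GST-Six1 plus His-tagged Eya2 (5X stock 250/500 nM) in pH 8.0 Tris/NaCl/TCEP buffer, beads added, then incubated 1 h, 37 C, dark.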
# D2 PAM: positive allosteric modulators of human D2 dopamine receptor; DiscoveRx D2 beta-arrestin cells, luminescence, 90 min; 100% = 57 uM dopamine signal; potentiation, % (test concentration not listed); 0.23% of 360,000 active; AID 624464; active = potentiation of 50% or more; inconclusive = 30% to 50%; inactive = 30% or less;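 also: compound concentration not given in the record; tested on top of an EC20 dose of dopamine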
# Target sequence (P14416 whole entry, looked up): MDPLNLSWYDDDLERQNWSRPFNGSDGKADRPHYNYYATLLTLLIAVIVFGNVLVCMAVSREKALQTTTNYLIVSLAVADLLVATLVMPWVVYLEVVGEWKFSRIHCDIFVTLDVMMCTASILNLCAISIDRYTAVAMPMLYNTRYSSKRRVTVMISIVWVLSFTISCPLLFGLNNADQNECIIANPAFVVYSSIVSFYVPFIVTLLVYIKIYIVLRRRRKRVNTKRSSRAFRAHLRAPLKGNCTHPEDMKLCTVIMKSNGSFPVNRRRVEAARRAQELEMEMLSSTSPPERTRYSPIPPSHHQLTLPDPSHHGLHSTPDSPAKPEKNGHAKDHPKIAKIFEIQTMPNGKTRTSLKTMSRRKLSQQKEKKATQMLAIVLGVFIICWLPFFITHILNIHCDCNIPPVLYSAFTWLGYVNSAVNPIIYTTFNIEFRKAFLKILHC
#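 D2 cells co-treated with compound plus 50 nM dopamine (EC20) for 90 min at 37 deg C to detect potentiation. Beta-arrestin recruitment was read as enzyme-fragment luminescence after 1 h at ambient temperature. Full response was set by 57 uM dopamine.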
# PINK1 modulator: changes PINK1 expression; 0.2% of 410,000 active; PINK1 immunofluorescence, high-content cytometry, 24 h; Potency, µM (titrated, usually from 76.6 µM), for inactives: at the top dose activation (PINK1 increase), actives largely listed as activators; active = well fitted activation curve with a large enough effect; inconclusive = small, poorly fitted or top-dose-only effect; inactive = flat fitted curve, though single readings scatter; cell line not stated here;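 also: potency is read from the fitted curve at half-maximal effect; % of control where 0% means no effect; nearly all actives have a fitted effect of over 65% in size; a mitochondrial uncoupler was the plate control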
#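 PINK1 protein, normally rapidly degraded, was detected by immunofluorescence after 24 hour compound treatment of a stable cell line. Titration data (5 concentrations) came from laser-scanning cytometry, with CCCP-treated wells as controls.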
# TRPML1 inh: inhibitors of human TRPML1 channel; activity change, negative = inhibition, % (concentration not given with the values); TRPML1-inducible cells, Ca2+ dye fluorescence, FDSS; hits give low values; inhibition of EC80 agonist-evoked calcium signal; 0.02% of 390,000 active; in the data active means activity change below about -50%; inconclusive means about -30% to -50%; inactive means above about -30%;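 also: stimulus is agonist 54-4 at its EC80 concentration; % is scaled to controls: 0 for no effect and ±100 for the full control effect; compound concentration not given in the record; the text of the record puts the active cut at -80%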
#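 Calcium fluorescence in TRPML1-DL cells induced overnight with Tet: a 110 s read after compound pin addition, then a 110 s antagonist read after challenge with 54-4 at 4 uM final (EC80).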
# D2 ag: agonists of human D2 dopamine receptor (beta-arrestin); activation, % (concentration not given with the values); 0.084% of 360,000 active; AID 624465; DiscoveRx PathHunter D2 beta-arrestin, luminescence, 90 min; 100% = 57 uM dopamine signal; P14416; in the data active = activation above about 40%; inconclusive = about 15% to 40%; inactive = below about 15%; also: compound concentration not given in the record; the text of the record calls up to 30% inactive
#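 Agonist mode: compounds alone added to overnight-plated D2 PathHunter cells for 90 min at 37 C, with 57 uM final dopamine (EC100) defining full response. Beta-arrestin recruitment detected by chemiluminescent reagent, read after 1 h at ambient temperature.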
# Active calls of the source: *; u = inconclusive; x = not tested or not shown; & = joins results of further samples; [ ] = remark or other dose.
SMILES,TRPML1 ag,Six1-Eya2 inh,D2 PAM,PINK1 modulator,TRPML1 inh,D2 ag
Cc1ccc(NC(=O)Cn2cnc3c(oc4nc5c(cc43)COC(C)(C)C5)c2=O)cc1,1.2,21.9,2.4,7.4%,-21.4,-1.2
COc1ccc(NC(=O)CSc2nc3ccccc3c3nc4ccccc4n23)cc1,-0.5,-15.0,-4.1,12.7%,-7.1,-0.9
CC(C)(C)n1ncc2c(=O)n(Cc3cccc(Cl)c3)cnc21,1.2&0.9,-4.2,-16.3,-0.5%,6.6&9.0,3.2
CN(Cc1nccn1C)C(=O)c1cc(COc2cccc(C(F)(F)F)c2)on1,0.9,-5.6,-17.6,-1.3%,-2.0,3.9
Cc1cc(NC(=O)CSCc2nc(-c3cccc(Cl)c3)oc2C)no1,-0.2,11.3,-10.2,-1.5%,0.9,-3.2
Cc1cccc(/C=C2/S/C(=N/N=C3\CC4CCC3(C)C4(C)C)NC2=O)c1 (stereo unspecified),1.6,-7.8,12.1,-4.4%,0.5,-1.6
O=C(NCc1nnc(SCC(=O)N2CCCc3ccccc32)n1-c1ccccc1)c1cccc2ccccc12,2.8,1.9,-13.1,-0.6%,10.1,0.9
COc1ccc(CC(N)c2csc(NC(=O)Nc3ccccc3Cc3ccccc3)n2)cc1 (stereo unspecified),0.0,-12.2,6.9,-1.6%,4.7,5.5
c1ccc(-c2nnc(-c3ccncc3)nc2-c2ccccc2)cc1,1.2,-3.5,-3.9,8.6%,18.0,3.9
CCCS(=O)(=O)N1CCC(C(=O)NCCc2ccc(OC)c(OC)c2)CC1,-1.0,-4.1,-5.5,1.5%,8.5,-1.7
CC1CCN(S(=O)(=O)N2CCN(C(=O)c3ccc4c(c3)OCO4)CC2)CC1,-0.3,8.9,-10.2,-0.6%,10.3,-2.8
CCCCOc1ccc(C(=O)N/C(=C/C=C/c2ccccc2)C(=O)NC)cc1,0.9,-3.0,-1.8,0.1%,-15.4,-3.5
CCn1c(SCC(=O)Nc2sc3c(c2C#N)CCC(C(C)(C)C)C3)nnc1-c1ccco1 (stereo unspecified),0.5,-3.2,4.7,6.4%,18.4,1.0
CCCNC(=O)NC(=O)CSc1nncs1,0.3,16.6,-1.0,0.9%,25.4,-1.7
CNC(=O)c1cc(C(=O)c2ccc(C(F)(F)F)cc2F)c[nH]1,-0.1,4.9,-3.4,-0.8%,-0.1,-1.3
CCC(=O)OCc1cc(=O)n2nc(C3CC3)sc2n1,-0.2,x,x,-0.3%,1.7,x
CN(C)c1nc(SCC#N)nc(N2CCOCC2)n1,1.3,-0.8,13.2,1.0%,35.5,-2.5
Cc1ccc(S(=O)(=O)N2C[C@@H]3[C@H]4CC[C@H](C4)[C@@H]3[C@@H](C)[C@@H]2c2ccn(Cc3ccccc3)c2)cc1,0.5,0.2,x,0.4%,-8.8,-0.9
CNC(=O)c1c(NC(=O)CCS(=O)(=O)c2ccc(Cl)cc2)sc2c1CCN(C(=O)OC)C2,-0.3,-2.1,-0.6,0.1%,0.7,-1.3
Cc1cccn2cc(CCNC(=O)c3cccs3)nc12,-1.1,-5.3,-3.8,-1.4%,-6.9,0.6
Cc1ccc(CCNC(=O)CS(=O)Cc2nc(-c3ccccc3F)oc2C)cc1 (stereo unspecified),-1.4,-0.3,-19.0,-1.0%,-6.9,-3.2
CCOC(=O)C1CCN(CC(=O)c2c(C)n(C)c3ccc(OC)cc23)CC1,1.0,-15.7,-12.5,-2.2%,-22.1,3.4
O=C(CSc1nnc(Cc2ccccc2)n1Cc1ccco1)NC12CC3CC(CC(C3)C1)C2,2.0,-0.6,-4.8,u,31.2,0.0
CCn1c(CN2c3ccccc3Sc3ccccc32)n[nH]c1=S,2.1,-8.7,-3.1,0.2%,51.9,-1.4
NC(=O)[C@@H]1CCCCNc2c(F)cc([N+](=O)[O-])cc2C(=O)N[C@@H](CCCN=C(N)N)C(=O)NCC(=O)N1,-0.1,-0.8,-16.3,0.6%,8.1,-2.7
SMILES,TRPML1 ag,Six1-Eya2 inh,D2 PAM,PINK1 modulator,TRPML1 inh,D2 ag
CCOc1ccc(NC(=O)N(C2CCCCC2)C(C)c2ccncc2)cc1 (stereo unspecified),1.4,10.1,-7.0,-2.9%,-3.3,1.1
O=C(CN(c1cccc(C(F)(F)F)c1)S(=O)(=O)c1ccc(Cl)c([N+](=O)[O-])c1)NCc1ccccc1Cl,-0.1,-9.7,1.5,1.3%,5.2,11.1
CNS(=O)(=O)c1ccc2c(c1)[nH]c(=S)n2C,0.1,17.3,-12.0,0.2%,16.3,-4.9
Cc1ccc(OCCNS(=O)(=O)c2ccc(Cl)cc2)cc1,-0.1,-5.3,-8.1,1.2%,-10.1,1.0
CC(C)(C)c1ccc(C(=S)N2CCN(c3ccccc3)CC2)cc1,-0.3,-23.0,-6.9,4.6%,-10.2,0.2
Cc1ccc(C(C)NC(=O)c2cccs2)cc1C (stereo unspecified),0.6,6.2,2.1,-0.8%,1.6,1.2
CCCCN(C(=O)CCCc1nc2ccccc2s1)c1c(N)n(CCCC)c(=O)[nH]c1=O,-0.5,3.0,-27.7,-0.6%,-0.4,-1.0
COc1ccc(C(=O)OCC(=O)Nc2sccc2C(N)=O)cc1[N+](=O)[O-],0.8,-1.7,1.2,8.4%,-11.3,-0.1
COc1ccc(Cl)cc1NC(=O)CSc1c2c(nc3ccccc13)CCC2,1.7,x,x,13.1%,-11.2,x
COc1ccc(CNC(=O)C(c2cccs2)N(Cc2ccco2)C(=O)Cc2cccs2)cc1 (stereo unspecified),-0.8,-10.2,11.9,-1.9%,-11.5,-1.1
CC1CCC(NC(=O)CN2C(=O)C3CC=CCC3C2=O)CC1 (stereo unspecified),-0.6,18.7,-1.4,3.8%,8.1,-3.1
O=C(Nc1ccccc1C(=O)Nc1ccncc1)c1cccc([N+](=O)[O-])c1,-0.8,-14.6,-5.9,0.7%,3.3,2.5
c1ccc(N/N=C2\CCCc3ccccc32)nc1,1.2,-9.5,-5.0,3.6%,-17.9,-5.1
CCn1cc(C(=O)O)c(=O)c2cc(F)c(N3CCN(C(=S)NC(=O)c4ccccc4)CC3)cc21,1.0,3.2,1.4,-1.7%,22.5,-1.0
CC(=O)Nc1ccc(NC(=O)C(NS(=O)(=O)c2ccc3c(c2)OCCO3)C(C)C)cc1 (stereo unspecified),-1.1,0.5,5.0,2.2%,4.5,-3.3
Cc1noc(C)c1C(=O)OCC(=O)NCCc1ccc(Cl)cc1,2.0,3.1,-2.9,-0.9%,-4.7,0.3
CCOc1cccc2sc(N(CCN(CC)CC)C(=O)c3ccco3)nc12,0.5,x,x,-0.2%,12.4,x
O=C(CSc1nccc(=O)[nH]1)N1CCCc2ccccc21,-0.5,1.8,0.3,-1.1%[38.3 µM],38.1,-2.0
COc1cc(C(=S)N2CCOCC2)ccc1OC(=O)/C=C/c1ccco1,1.5,-10.1,-6.6,1.6%,-0.2,-3.9
COC(=O)[C@H](C)NC(=O)NC(C)CCc1ccccc1 (stereo partly specified),0.4,19.2,-5.1,u,4.3,-2.9
Cc1ccc(N=Nc2ccc(O)c(P(=O)(c3ccccc3)c3ccccc3)c2)cc1,1.7,15.3,-26.5,u,1.0,-9.1
COc1ccc(OC)c(CN2CCC(CNC(=O)Nc3cccc(Cl)c3)CC2)c1,-0.6,-18.4,-26.9,-0.8%,-3.1,-1.8
CCC(=O)N1CCc2cc(S(=O)(=O)CCC(=O)Nc3cccc(F)c3)ccc21,-0.9,-1.5,-7.7,-0.2%,6.4,-3.5
COc1ccc2cc(C3CC(c4cccs4)=NN3C(C)=O)c(Cl)nc2c1 (stereo unspecified),-0.6,-23.6,-5.9,10.6%,6.4,-8.7
CN(C)c1ccc(CNC(=O)C2CCN(S(=O)(=O)c3ccc4c(c3)oc(=O)n4C)CC2)cc1,0.5&-0.3,-8.1,-23.9,0.9%&0.4%,2.1&-10.9,-5.4
SMILES,TRPML1 ag,Six1-Eya2 inh,D2 PAM,PINK1 modulator,TRPML1 inh,D2 ag
Cc1nn(Cc2ccc(Cl)cc2)c(C)c1NC(=O)CCCn1nc(C)c([N+](=O)[O-])c1C,1.7,-0.9,-3.5,0.4%,6.7,9.6
C/C(=N\Nc1ccc(F)cc1F)c1ccc(Br)s1,0.5,-7.5,8.7,12.3%,4.3,11.6
NC(=O)CCN1CCC(c2nc3ccccc3s2)CC1,-0.4,0.3,-14.3,0.4%,20.3,-4.2
COc1ccc(C)cc1-n1nc2ccccc2n1,1.5,2.4,-8.7,1.7%,0.8,-1.3
C=CCn1c(SCC(=O)Nc2nccs2)nnc1-c1cc2cccc(OC)c2o1,3.6,-0.2,-3.8,15.8%[38.3 µM],15.5,1.8
CCOC(=O)C1CCCN(C(=O)c2ccco2)C1 (stereo unspecified),-0.3,4.7,-2.0,0.2%,2.0,-1.8
O=C(CSCc1c(F)cccc1Cl)NCCc1ccccc1,x,4.8,-24.5,0.9%,x,-2.9
C[C@H]1C(=O)N(C)CCN1Cc1cn(C)nc1-c1ccc(Oc2ccccc2)cc1,-0.6,-1.4,-3.4,4.2%,0.1,2.8
CCC(=O)N1CCc2cc(S(=O)(=O)CCC(=O)NC3CCCCC3)ccc21,0.0,18.1,-4.7,1.2%,-13.7,-0.4
CCOC(=O)N1CCN(C(=O)C2CCN(S(=O)(=O)c3cc(OC)ccc3OC)CC2)CC1,0.1,-6.3,-0.4,1.9%,4.4,-5.7
CC(C)C[C@H](NC(=O)N1CC(=O)Nc2ccccc21)C(=O)N1CCC(C(=O)O)CC1,0.3,7.4,-13.1,-1.0%,18.8,3.7
CC(C)CC(=O)NC(=S)Nc1ccc(F)cc1F,2.2,4.5,-7.7,2.7%,-11.2,-1.9
Cc1ccc(CNC(=O)C(=O)NCC2OCCN2C(=O)c2ccc3c(c2)OCO3)cc1 (stereo unspecified),-0.9,-1.8,-2.1,5.2%,6.7,-2.8
Fc1ccc(C(c2nnnn2C2CCCC2)N(Cc2ccco2)CC2CCCO2)cc1 (stereo unspecified),5.7,-0.3,-6.6,-2.1%,-12.6,-2.4
CCOC(=O)c1c(NC(=O)CS(=O)(=O)c2cn(CC)c3ccccc23)sc2c1CCCCC2,0.0,-11.5,0.0,3.2%,-4.4,1.1
Cc1onc(-c2ccccc2Cl)c1C(=O)N[C@@H](C)c1ccccc1,1.4,-1.6,-11.2,0.1%,-5.3,-6.3
Cc1ccn2c(C(=O)CSc3ccccc3)c(C)nc2c1,0.7,-0.9,-10.4,2.4%,1.1,-3.8
COc1cccc(NC(=O)CSC2=Nc3ccccc3C3=NC(CC(=O)NCc4ccccc4OC)C(=O)N23)c1 (stereo unspecified),0.7,x,x,7.1%,-0.9,x

# Bioassay records (PubChem BioAssay)
